Choline anaer gr: growth inhibitors of anaerobic choline-fed gram-negatives, minimal medium, absorbance. Gram-negative bacterium anaerobic choline minimal medium; hits give low values; many inactives read as strong as hits in the columns shown. calls only. 55,000 tested, 0.2% active. AID 1963822, 2024;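 active = growth z-score on choline under -2 at 7 or 20 h with little or no fall on glycerol, limits in tiers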;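 note: stock transfer was 300 nL into about 50 µL; the organism is E. coli; final concentration not given here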
Choline anaer gr early: also measured in Choline anaer gr; calls as there; z-score; measured here: choline growth z-score, timepoint 1;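 score of optical density at 7 h as mean of two plates; lower means less growth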
The depositor's hits bear a star; i = inactive; & = joins results of further samples. An excerpt. The share of hits here may be higher or lower than overall.

SMILES	Choline anaer gr	Choline anaer gr early
Cc1ccc(CCNC(=O)C(C)C2Sc3ccccc3N(Cc3ccccc3F)C2=O)cc1 (configuration not stated)	i	1.89
COc1ccc(-c2noc(-c3ccc4c(=O)n(-c5ccc(F)cc5)c(=O)[nH]c4c3)n2)cc1OC	i	-0.61
O=C(c1csc(S(=O)(=O)N2CCN(C3CCCCC3)CC2)c1)N1CCOCC1	i	-1.1
CCc1ncc(C(=O)NCc2cccc(F)c2)c(C)n1	i	-1.27
COc1ccc(CCNC(=O)c2cc3c(=O)n(Cc4ccccc4)ccc3nc2C)c(OC)c1	i	0.35
O=C(CSc1nc2ccccc2c(=O)[nH]1)Nc1ccccc1	i	1.2
CCCc1cc(=O)n2[nH]c(-c3ccc(C)cc3)nc2n1	i	-0.32
Cc1cc(C)c2c(C)nn(-c3ccc(C(=O)O)cc3)c2n1	i	-0.42
CCOC(=O)c1cccc(NC(=O)C2=Cc3cc(C)ccc3OC=C2)c1	i	1.98
Clc1ccc(-c2ccc(CNCc3ccco3)o2)c(Cl)c1	i	-0.22
CCOc1ccc2nc(NC(=O)Cc3csc(NC(=O)c4cc(OC)cc(OC)c4)n3)sc2c1	i	1.67
Cn1cnc(S(=O)(=O)Nc2cccc3c2CCCC3)c1	i	-0.79
COc1ccccc1-c1nn2c(-c3cc(C(C)C)[nH]n3)nnc2s1	i	-0.54
Cc1cc(=O)n2nc(N3CCC(C(=O)NCc4ccccc4Cl)CC3)sc2n1	i	-1.06
O=C(NCc1ccc2c(c1)OCO2)C1=NS(=O)(=O)c2ccccc2N1	i	-1.33
CCN1CCN(C(=O)c2n[nH]c3c2CC(C)CC3)CC1 (configuration not stated)	i	0.31
O=C(C1=Cc2ccccc2OC1)N1CCCCC1	i	-0.64
O=C1C(O)=C(c2ccc(Cl)cc2)C(c2ccc(F)cc2)N1Cc1ccc(F)cc1 (configuration not stated)	i	0.03
CC(=O)N1CCCSc2ccc(S(=O)(=O)Nc3ncccc3C)cc21	i	0.59
CC(CCc1ccccc1)NCc1ccc2c(c1)n(C)c(=O)n2C (configuration not stated)	i	-0.96
CC(=O)[C@H]1CC[C@H]2[C@@H]3CC=C4C[C@@H](O)CC[C@]4(C)[C@H]3CC[C@]12C	i	0.7&0.14
COc1cc2c(cc1OC)n(CC(=O)Nc1ccccc1)c(=O)n1nc(-c3ccccc3)nc21	i	1.75
CCOC(=O)Cc1csc(-n2nc(C)c(Cl)c2C)n1	i	-1.66
CCCn1c(=O)c2ccc(C(=O)NC(C)C)cc2n2c(=O)n(CC(=O)c3ccc(Cl)cc3)nc12	i	-0.11
CC(C)c1ccc(C2C(S(=O)(=O)c3ccccc3)=C(O)C(=O)N2Cc2ccc3c(c2)OCO3)cc1 (configuration not stated)	i	-0.22
COC(=O)c1ccccc1NC(=O)N1CCC2(CC1)CC(=O)c1ccccc1O2	i	-0.4
O=c1cc(N2CCOCC2)oc2c1ccc1ccccc12	i	0.17
Cc1ccc(Nc2nc3ccccc3n3cnnc23)cc1F	i	0.27
CC1CNc2c(cccc2S(=O)(=O)NC(CCCN=C(N)N)C(=O)N2CCC(C)CC2C(=O)O)C1 (configuration not stated)	i	0.03
CC(=O)N1CCC(C(=O)NCc2ccccc2)(N(C(=O)c2ccc(C)cc2)c2cccc(Br)c2)CC1	i	0.08

Seven of the compounds above, as a markdown table.
| mol | Choline anaer gr | Choline anaer gr early |
| --- | --- | --- |
| CCOc1ccc2nc(NC(=O)Cc3csc(NC(=O)c4cc(OC)cc(OC)c4)n3)sc2c1 | i | 1.67 |
| Cn1cnc(S(=O)(=O)Nc2cccc3c2CCCC3)c1 | i | -0.79 |
| COc1ccccc1-c1nn2c(-c3cc(C(C)C)[nH]n3)nnc2s1 | i | -0.54 |
| Cc1cc(=O)n2nc(N3CCC(C(=O)NCc4ccccc4Cl)CC3)sc2n1 | i | -1.06 |
| O=C(NCc1ccc2c(c1)OCO2)C1=NS(=O)(=O)c2ccccc2N1 | i | -1.33 |
| CCN1CCN(C(=O)c2n[nH]c3c2CC(C)CC3)CC1 (configuration not stated) | i | 0.31 |
| O=C(C1=Cc2ccccc2OC1)N1CCCCC1 | i | -0.64 |

Remaining list, next part:
SMILES	Choline anaer gr	Choline anaer gr early
COc1ccc(-c2noc(C3CCCN(S(=O)(=O)c4ccc(C)cc4)C3)n2)cc1 (configuration not stated)	i	-0.27
COc1cc(-c2nc3nc(C)cc(C)n3c2Nc2ccc(Cl)cc2)ccc1O	i	0.44
CC(C)NC[C@@H](O)c1ccc(O)c(O)c1	i	0.42&0.33
CCOc1ccc(CCNC(=O)CNC(=O)C2(C)Cn3c(cc4ccccc43)C(=O)N2C)cc1 (configuration not stated)	i	0.89
CN(C)c1cc(OC2CCN(C(=O)Cc3cccs3)C2)ncn1 (configuration not stated)	i	-0.24
Cc1ccccc1CN1C(=O)Nc2ccccc2S1(=O)=O	i	0.77
Cc1nc(-c2ccccc2)sc1-c1ccc(SCC(=O)NC2CCCCC2)nn1	i	-0.32
CCOc1ccc(OCC)c(NS(=O)(=O)c2cc(-c3c(C)noc3C)ccc2C)c1	i	1.41
CCn1cnc(S(=O)(=O)N2CCCC(C(=O)NC3CCCC3)C2)c1 (configuration not stated)	i	0.18
Cc1ccc(Nc2cc(C)nc3c(-c4ccc(F)cc4)cnn23)cc1	i	-0.29
COc1cccc(N2CCN(C(=O)c3cccc(-n4nnc5cccnc54)c3)CC2)c1	i	0.36
CCN(CC)c1cc(=O)n2c(-c3ccc(C)cc3)csc2n1	i	0.46
CCCn1c(Cn2ccnc2C)nc2cc(NC(=O)C(C)C)ccc21	i	0.08
Nc1cc(-c2ccc(Cl)cc2)nn1S(=O)(=O)c1ccc(Cl)cc1	i	1.42
O=C(NCCCc1ccccc1)C1CCN(c2ncnc3c2oc2ccccc23)CC1	i	1.05
CCOC(=O)c1ccccc1NC(=O)Cn1c(-n2nc(C)cc2C)nc(C)c(C)c1=O	i	0.57
CNC(=O)CCCc1nc(-c2cc3cc(C)ccc3[nH]c2=O)no1	i	0.66
C=CCSc1nc2sc3c(c2c(=O)n1CCCC)CCC3	i	-0.96
CCOCCCNC1=NCCNC12CCN(S(=O)(=O)c1cc(C)ccc1C)CC2	i	-1.66
O=C(NCc1ccc2c(c1)OCO2)C1CCN(c2nccn3nc(-c4ccc(F)cc4)cc23)CC1	i	1.01
c1cncc(-c2nc(-c3ccc(-n4ccnc4)nc3)no2)c1	i	-0.35
CCOC(=O)c1nc(Nc2ccc(OC)cc2OC)c2c(C)noc2n1	i	-1.35
CCC(C(=O)Nc1cccc(OC)c1)n1nc(-c2ccccc2)ccc1=O (configuration not stated)	i	0.37
O=C(CCc1nc2sc3c(c2c(=O)[nH]1)CCCCC3)N1CCN(C2CCCCC2)CC1	i	-0.92
Cc1cccc(CSc2nnc3n(CCCOC(C)C)c(=O)c4cc(C)ccc4n23)c1	i	-0.27
O=c1c(N2CCCC2)c(N2CCCC2)c1=O	i	-0.49
CCCN1C=NS(=O)(=O)c2cc(C(=O)NCC(C)C)ccc21	i	-0.9
O=C(Nc1cccc(-c2noc(C3CCCC3)n2)c1)c1cc2ccccc2[nH]1	i	2.25
CCCc1cc(C2CCCN2Cc2ccncc2)no1 (configuration not stated)	i	2.24
CC1CCCN(C(=O)Cn2c(=O)c(=O)n(C)c3ccccc32)C1 (configuration not stated)	i	-0.79
CCOc1ccc(-n2nnc(-c3nc(-c4ccc(C(C)C)cc4)cs3)c2N)cc1	i	-0.53
CN(c1c(-c2ccccc2)c(=O)c1=O)C1CCCCC1	i	0.51
C[C@H]([C@@H](O)c1ccc(O)cc1)N1CCC(Cc2ccccc2)CC1 (racemic)	i	-0.24
CCOc1ccc(NC(=O)N2CC(=O)N(CC(=O)Nc3ccccc3Cl)c3ccccc32)cc1	i	0.31
Cc1[nH]c(C)c(S(=O)(=O)N2CCC(C(=O)Nc3ccc(F)cc3F)CC2)c1C(=O)N1CCCC1	i	-1.19
OC(CN1CCN(C2CCCCC2)CC1)c1ccc2cc[nH]c2c1 (configuration not stated)	i	-0.77
C=CCOc1c(OC)cccc1C1CC(=O)Nc2c1cnn2-c1nc2ccccc2s1 (configuration not stated)	i	-0.86
Cc1ccc(C)c(Nc2ncnc3c2cnn3C)c1	i	-0.27
Cc1cc(N2CCN(C)CC2)n2nc(C(F)(F)F)c(-c3ccc(Cl)cc3)c2n1	i	-0.07
O=c1[nH]c(SCc2nc(-c3ccc(Br)cc3)no2)nc2c(-c3ccccc3)c[nH]c12	i	0.93

Arranged by SMILES length (ascending): some entries from above.
SMILES	Choline anaer gr	Choline anaer gr early
CCOc1ccc(NC(=O)N2CC(=O)N(CC(=O)Nc3ccccc3Cl)c3ccccc32)cc1	i	0.31
O=c1[nH]c(SCc2nc(-c3ccc(Br)cc3)no2)nc2c(-c3ccccc3)c[nH]c12	i	0.93
Cc1[nH]c(C)c(S(=O)(=O)N2CCC(C(=O)Nc3ccc(F)cc3F)CC2)c1C(=O)N1CCCC1	i	-1.19

(list continues)
SMILES	Choline anaer gr	Choline anaer gr early
Cn1nnc2c(Nc3ccc(F)c(Cl)c3)ncnc21	i	-0.33
COc1ccc(CSc2nccc3c2ccn3CC(=O)Nc2ccccc2OC)cc1	i	0.87
Clc1ccc(COC(Cn2ccnc2)c2ccc(Cl)cc2Cl)c(Cl)c1 (configuration not stated)	i	0.29&-0.19
CCCCN(Cc1nc2nc(C)cc(C)n2n1)C(=O)c1ccc(F)cc1	i	-0.69
O=c1ccc2ccccc2o1	i	0.3
O=C(NCCC1=CCCCC1)C1CCN(c2cnc(N3CCCC3)nc2)CC1	i	0.25
Cc1ccc(C(C)NC(=O)c2ccc(Oc3ccnc(-c4cccc(C)c4)n3)cc2)cc1 (configuration not stated)	i	0.77
Fc1ccc(-c2cn3c4ccccc4n(CCN4CCOCC4)c3n2)cc1	i	-0.36
COc1ccc2[nH]c(S(=O)Cc3ncc(C)c(OC)c3C)nc2n1 (configuration not stated)	i	0.3&0.39
CC1CCC(NC(=O)C2CCC(=O)N2S(=O)(=O)c2ccc(F)cc2)CC1 (configuration not stated)	i	-1.05
O=C(NCC1CCCO1)c1cc(NS(=O)(=O)c2ccc3c(c2)CCCC3)cnc1N1CCNCC1 (configuration not stated)	i	0.09
O=c1ccc2cc(S(=O)(=O)NCCN3CCc4ccccc4C3)ccc2[nH]1	i	-0.58
COc1ccc(-c2nc(CCNC(=O)C(C)Oc3cc(C)cc(C)c3)cs2)cc1 (configuration not stated)	i	0.83
O=C(CN1N=NC2C(=O)N(c3ccc(F)cc3)C(=O)C21)Nc1ccc(Cl)cc1 (configuration not stated)	i	-0.9
CCCn1c(=O)c2cc(C)ccc2n2c(SCc3cc(C)ccc3C)nnc12	i	0.89
Cc1ccc(S(=O)(=O)NCC(c2ccccc2)N2CCOCC2)cc1 (configuration not stated)	i	-1.07
c1ccc(-c2nn3c(-c4ccccn4)nnc3s2)cc1	i	0.66
CNC(=O)CCc1nc2sc3c(c2c(=O)[nH]1)CCCCC3	i	0.4
Cc1ccc(-c2nc3cccnc3n2CCCNC(=O)C(C)C)cc1	i	-0.65
COc1ccc(C(=O)/C(Cc2cc(OC)c(OC)c(OC)c2)=C(\C(=O)O)c2ccc3c(c2)OCO3)cc1	i	0.93
Cc1cc(N2CCOCC2)nc(N2CCN(C(=O)c3ccc(C)c(C)c3)CC2)n1	i	-0.08
O=C(c1cc(-c2ccncc2)n[nH]1)N1CCCC(C(=O)N2CCN(c3ncccn3)CC2)C1 (configuration not stated)	i	1.32
O=C(NCc1ccccn1)c1nc[nH]c1C(=O)NCc1ccccn1	i	-0.7
CCOc1ccc(C(=O)N2CCCC(c3nc(-c4cccc(NC(=O)CC)c4)no3)C2)cc1 (configuration not stated)	i	1.15
COc1cccc(-c2ccc(SCc3nc(-c4ccccc4)no3)nn2)c1	i	1.65
COc1ccc(CCNC(=O)c2cccc(-n3cnc4cccnc43)c2)cc1OC	i	-0.86
O=C(NCc1ccccc1)C1CCN(C(=O)Nc2ccc(S(=O)(=O)N3CCOCC3)s2)CC1	i	0.13
COc1ccc(NC(=O)NCCC2CCN(S(=O)(=O)c3ccc(C)cc3)CC2)cc1OC	i	-0.11
COc1cccc(NC(=O)CN(C)S(=O)(=O)c2ccc3c(c2)CCCC(=O)N3)c1	i	-1.2
Cc1ccc2nc(CCc3cccc(NC(=O)c4cnccn4)c3)[nH]c2c1	i	0.23
COc1cccc2c1Oc1ncccc1N(C(=O)CCC(=O)NCCc1ccc(Cl)cc1)C2	i	-0.31
COc1ccc2c(c1)NC1(CCN(C(=O)Nc3ccc(F)cc3F)CC1)c1cccn1-2	i	-0.65
O=C(NCc1c(-c2ccccc2)nc2n1CCS2)C1c2ccccc2Oc2ccccc21	i	1.87
COc1ccc(S(=O)(=O)Nc2cccnc2)cc1-c1nc(C(C)C)no1	i	-2.26
O=C(NCCc1csc(-c2ccccc2)n1)[C@H]1CCCN1C(=O)c1ccc(Br)cc1	i	-0.35
O=C(C1CC(=O)N(c2ccccc2)C1)N1CCN(c2ncnc3c2nnn3-c2ccc(F)cc2)CC1 (configuration not stated)	i	0.19
CCS(=O)(=O)c1nc2ccc(NS(=O)(=O)c3ccccc3Cl)cc2s1	i	-0.51
CCNC(=O)N1CCc2cc(S(=O)(=O)NC3CC3)ccc21	i	-0.61
CCc1ccc(C2=C(C)C(N3CCC(NC(=O)C(C)(C)CC)CC3)=NS2(=O)=O)cc1	i	1
COc1cccc(-n2c3c(c(SCc4ccccc4)nc2=O)CCC3)c1	i	1.04
COc1cccc(C(=O)Nc2c3c(nn2C(C)(C)C)CS(=O)(=O)C3)c1	i	-1.05
O=C(NCc1ccc(Br)cc1)C1CCN(c2ccc(-c3ccccc3)nn2)CC1	i	1.01
Cn1cc(CN2CCC(C(=O)NCC3CCCO3)CC2)c2cc(Cl)ccc21 (configuration not stated)	i	-0.57

An excerpt from above in order of the Choline anaer gr early value, falling.
SMILES | Choline anaer gr early
O=C(NCc1c(-c2ccccc2)nc2n1CCS2)C1c2ccccc2Oc2ccccc21 | 1.87
O=C(C1CC(=O)N(c2ccccc2)C1)N1CCN(c2ncnc3c2nnn3-c2ccc(F)cc2)CC1 (configuration not stated) | 0.19
COc1cccc(C(=O)Nc2c3c(nn2C(C)(C)C)CS(=O)(=O)C3)c1 | -1.05
